From PubChem
HNF4A DNA FP – change in binding of human HNF4A to DNA, primary screen, biochemical, fluorescence polarization, FITC-DNA; activity change, % at 10 µM; 1 h; AID 1224865, 2016; 0.3% of 360,000 active; in the data active means activity change above about 30%, passing the limit was not always enough;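 further: controls were the assay level and a saturating level of protein; the project sought stronger binding though the title names inhibitors; some compounds called inactive have numbers as strong as hits; positive values seem to mean higher polarization but the record does not say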
Target sequence (P41235 whole entry, looked up): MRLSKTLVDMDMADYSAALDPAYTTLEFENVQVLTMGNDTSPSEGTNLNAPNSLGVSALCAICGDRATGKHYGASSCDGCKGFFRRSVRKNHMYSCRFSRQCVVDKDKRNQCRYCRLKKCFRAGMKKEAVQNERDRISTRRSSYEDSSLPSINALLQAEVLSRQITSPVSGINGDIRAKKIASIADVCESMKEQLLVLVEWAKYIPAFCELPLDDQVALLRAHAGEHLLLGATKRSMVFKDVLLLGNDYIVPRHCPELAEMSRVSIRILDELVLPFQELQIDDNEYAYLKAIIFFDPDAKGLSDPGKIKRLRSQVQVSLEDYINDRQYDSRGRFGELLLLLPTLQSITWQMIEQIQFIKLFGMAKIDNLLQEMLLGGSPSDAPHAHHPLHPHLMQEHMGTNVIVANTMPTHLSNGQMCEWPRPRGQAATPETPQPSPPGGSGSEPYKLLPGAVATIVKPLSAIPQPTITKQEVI
Bfl-1 A1 inh – caspase 3/7 activation in MEF A1-2A-BIM cells, primary screen, A1 inhibitor project, cell-based, luminescence, HTS | Caspase-Glo 3/7 luminescence, 3 h; percent of clofoctol response, vehicle zero | 0.066% of 330,000 active | caspase activation, % (concentration not given with the values);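 active means over half of replicate activation scores above 10%, or exactly half above 10 with the replicate mean above 10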;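 further: wells of about 30 µL received 50 nL stock; many hits fall short of the cut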
Beta2AR agonist – beta2AR agonists driving receptor internalization, primary screen, cell-based, FAP fluorogen, flow cytometry; Beta-2 adrenergic receptor (Homo sapiens), P07550; Am2.2-beta2AR cells; reference of the scale not given here; response, % (test concentration not listed); 0.43% of 340,000 active; AID 504454, 2011;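 active means response above a set limit, near 3 SD of response in nonfluorescent compounds, cut at about 42% in these data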;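 further: stock transfer was 100 nL into about 11 µL; a reference agonist was the positive control; negative values mostly stem from fluorescent compounds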
LANA-H2B inh – blockers of LANA interaction with H2A/H2B – biochemical, FP readout, HTS, primary screen; Protein LANA1 (Human herpesvirus 8 type P (isolate GK18)), Q9QR71; cell-free LANA-H2A/H2B peptide, fluorescence polarization; inhibition, % (test concentration not listed); 0.6% of 320,000 active; AID 2629, 2010; in the data active means inhibition mostly above about 10%, no sharp cut-off; inactive means mostly below about 6.7%;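 further: stock transfer was 7.5 nL into about 10 µL; 0% = median of vehicle wells and 100% = median of positive control wells; one replicate is shown; the record names a cut of 25% in any replicate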
Vif TR-FRET – inhibitors of Vif binding to APOBEC3G peptide, primary screen, biochemical, TR-FRET, GST-Vif 1-94, biotin-A3G peptide, dose response retest (AID 1117319). 0.57% of 260,000 active. TR-FRET GST-Vif / biotin-A3G peptide binding; higher % means a stronger effect; test concentration not given here; strong numbers were not always called active. one-dose inhibition, %; IC50 in µM for titrated hits;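 active means above the screen mean plus three standard deviations and confirmed in dose response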;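 further: Vif residues 1-94 fused to GST binding biotinylated APOBEC3G peptide 110-148; 0% = full assay without inhibitor and 100% = GST in place of GST-Vif; retest series ran down from 100 µM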
Ecoli growth – E. coli growth inhibition, primary screen, OD600; OD600 absorbance (concentration not given with the values); Escherichia coli growth, 23 h; hits give low values; 0.21% of 330,000 active;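 active means OD600 absorbance below the run mean of sample wells minus 3.6 SD, in any replicate, cut at about 0.56 in these data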;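 further: stock transfer was 300 nL into about 60 µL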
UCH37 inh – inhibitors of human UCH37 deubiquitinase, primary screen, biochemical, Ub-AMC cleavage, fluorescence; 0.33% of 330,000 active; purified proteasome/UCH37; inhibition, % (no concentration beside the values);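 active means mean of two replicates above 20%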;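 further: 0% = compound-free wells with enzyme and 100% = wells lacking proteasome; stock transfer was 100 nL into about 20 µL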
Target sequence (Q9Y5K5 whole entry, looked up): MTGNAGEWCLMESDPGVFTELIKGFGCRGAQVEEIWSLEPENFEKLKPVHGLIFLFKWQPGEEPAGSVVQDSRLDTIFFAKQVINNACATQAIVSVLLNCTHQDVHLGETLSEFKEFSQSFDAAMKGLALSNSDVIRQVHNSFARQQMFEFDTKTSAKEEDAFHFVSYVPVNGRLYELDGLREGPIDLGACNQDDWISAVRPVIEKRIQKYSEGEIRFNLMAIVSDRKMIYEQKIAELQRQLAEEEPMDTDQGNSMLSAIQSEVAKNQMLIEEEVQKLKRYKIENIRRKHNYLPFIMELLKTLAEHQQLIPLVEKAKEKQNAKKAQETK
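assay system = human UCH37 enzyme supplied as purified proteasome complex | amount = proteasome at 0.15 nM in the dispensed enzyme solution | schedule = 30 min compound-proteasome preincubation then 25 min substrate reaction, room temperature | measured by = fluorescence, ex 355 nm, em 460 nm | benchmarks = no-proteasome wells (full inhibition) and compound-free wells (no inhibition)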
Active calls of the source: *; · = no result given; & = joins results of further samples.

structure,Bfl-1 A1 inh,UCH37 inh,Vif TR-FRET,Beta2AR agonist,HNF4A DNA FP,Ecoli growth,LANA-H2B inh
O=C(CCC(=O)NNC(=O)COc1ccc(Br)cc1Br)NCc1ccccc1,0.3,3.3,-3%,8,-0.9,0.67,1.6
CCN(CC)S(=O)(=O)c1ccc(N/N=C(\C)c2ccc(OC)cc2O)nc1,1.4,·,·,12,-5.0,·,-2.4
COc1ccccc1C1=NNC(=NCc2ccccc2)SC1,-0.2,5.0,22%,-1,2.1,0.65,-1.2
CCn1c(C)[n+](CCOCC[n+]2c(C)n(CC)c3cc(Cl)c(Cl)cc32)c2cc(Cl)c(Cl)cc21,0.7,4.9,17%,-8,-2.3,0.73,-3.4
CNS(=O)(=O)c1cnccc1N1CCN(C)CC1,0.4,2.1,-1%,31,-0.3,0.64,1.8
Cc1onc(C(=O)NN)c1C(=O)N1CCN(C(c2ccccc2)c2ccccc2)CC1,0.2,1.5,·,2,-0.4,0.66,-8.1
O=C(NCCN1CCCCCC1)C1CC(=O)N(CCc2ccccc2)C1 (stereo not drawn),0.2,2.1,3%,1,-2.0,0.67,2.2
Cc1nnsc1C(=O)N/N=C/c1c(F)cccc1Cl,0.8,·,1%,-2,-1.1,·,1.9
Cc1ccc(NC(=O)C(c2ccccc2)N2CCN(CC(=O)N3CCOCC3)CC2)cc1Cl (stereo not drawn),-0.4,2.2,-4%,-3,-0.9,0.67,2.3
Cc1ccc(/C=N/NC(=O)C(C)Oc2ccccc2[N+](=O)[O-])s1 (stereo not drawn),0.0,·,2%,-33,-0.8,·,4.7
COc1ccc(CCNC(=O)Cn2ccc3cc(S(=O)(=O)N4CCCC4)ccc32)cc1OC,0.3,·,·,-1,0.6,·,-4.5
CC(=O)[C@@]1(O)CC[C@H]2[C@@H]3CCC4=CC(=O)CC[C@]4(C)[C@H]3[C@@H](O)C[C@@]21C,0.9,1.2,27%,14,1.3,·,2.1&-16

Additional records.
structure,Bfl-1 A1 inh,UCH37 inh,Vif TR-FRET,Beta2AR agonist,HNF4A DNA FP,Ecoli growth,LANA-H2B inh
COc1ccccc1-n1cnc2sc(-c3ccccc3)cc2c1=O,-2.3,1.1,0%,-14,-0.2,0.66,2.5
Cc1c(C(=O)OCC(=O)N2CC(=O)Nc3ccccc32)oc2ccccc12,1.1,1.2,-4%,-2,0.9,0.67,3.0
O=C(Nc1ccc(-c2nc3ccccc3[nH]2)cc1)c1ccc(N2C(=O)CCC2=O)cc1,0.2,-153,-17%,12,3.9,0.74,-1.7
CCOc1ccc(N2CC(C(=O)NC3=NCCS3)CC2=O)cc1 (stereo not drawn),-0.5,-0.6,·,-2,-2.1,0.68,1.3
CCn1c(C)nc2c1C(=O)c1ccccc1C2=O,0.3,2.3,4%,-7,-2.1,0.65,1.3
CC(C)(Oc1ccc(Cl)cc1)C(=O)Nc1ncccn1,-0.1,0.4,6%,-7,0.6,0.67,-1.6
COc1ccc(/C=C2\CN(Cc3ccccc3)C/C(=C\c3ccc(OC)cc3OC)C2=O)c(OC)c1,-0.7,4.6,16%,20,2.0,0.72,1.1
CCOc1ccc(S(=O)(=O)N(CC(N)=O)c2ccc(C)cc2)cc1,1.5,1.0,0%,-5,-1.8,0.75,2.4
Cc1ccc(CNC(=O)C(=O)NCC2OCCCN2S(=O)(=O)c2cccs2)cc1 (stereo not drawn),0.4,4.2,·,-6,1.4,0.7,-3.3
CC(C)c1nc(=S)n(-c2ccccc2)[nH]1,-0.6,3.1,1%,-3,2.2,0.67,-1.4
CS(=O)(=O)NN1C(=O)c2ccccc2NC1c1ccccc1O (stereo not drawn),-0.3,-90,·,7,0.7,0.69,-4.5
COc1ccc(NC(=O)C2CCCN2C(=O)Nc2cccc(F)c2)cc1 (stereo not drawn),-0.1,2.1,-4%,0,5.6,0.67,4.2

Remaining list, next part:
structure,Bfl-1 A1 inh,UCH37 inh,Vif TR-FRET,Beta2AR agonist,HNF4A DNA FP,Ecoli growth,LANA-H2B inh
Cc1ccc(-c2cc(N)n[nH]2)cc1,0.4,-0.3,21%,6,-1.5,0.62,-6.9
CCOc1cc(NC(=S)NCC2CCCO2)c(OCC)cc1NC(=O)c1ccc(F)cc1 (stereo not drawn),0.2,-0.6,7%,-12,2.9,0.69,-2.4
Cc1ccn2cc(CCNS(=O)(=O)c3ccc4ccccc4c3)nc2c1,-0.6,-1.2,-6%,-2,-1.8,0.72,-6.3
S=C(Nc1ccccc1Cl)N1CCOCC1,1.6,2.8,2%,-1,1.3,0.71,2.7
CCOc1ccc(C(=O)CCC(=O)N(CC)CC(=O)NCc2ccc(Cl)cc2)cc1,0.2,5.0,-7%,-6,2.0,0.69,0.4
O=C(Cc1ccccc1)c1ccc2c(c1)OCCO2,-5.5,0.0,-6%,2,1.0,0.61,-0.4
CCOCCCNC(=O)/C(C#N)=C/c1cc(Br)c(O)c(Br)c1,·,7.7,-1%,28,0.1,0.71,·
OCC1OC(n2cnc3c(SCc4ccccc4)nc(F)nc32)C(O)C1O (stereo not drawn),·,2.7,-3%,-3,2.3,0.67,·
COc1cccc(NC(=O)NNC(=O)CN2C(=O)COc3ccccc32)c1,-0.6,2.1,-3%,-1,0.1,0.61,1.2
O=[N+]([O-])c1cccc(OCc2cn3cccnc3n2)c1,0.1,2.8,-4%,-25,-0.2,0.67,9.9
NNC(=O)c1cccc(COc2ccc(Br)cc2)c1,-1.4,4.6,22%,-1,4.0,0.74,1.6
COc1ccc(-c2cc(=O)oc3cc(OC(=O)C4CCCCC4)c(Cl)cc23)cc1,-0.2,-40,-7%,-1,-2.1,0.68,-2.9

New compounds follow
structure,Bfl-1 A1 inh,UCH37 inh,Vif TR-FRET,Beta2AR agonist,HNF4A DNA FP,Ecoli growth,LANA-H2B inh
O=C(NNC1=C(C(=O)C(F)(F)F)CCC1)c1cccnc1,0.0,11,·,-1,-1.7,0.69,-1.0
CCOc1ccc(CC(=O)NCc2cn3c(C)csc3n2)cc1,0.4,2.7&0.6,-3%,-5,3.1,0.67&0.75,1.7
C#CCOCCOCCOCCNc1nc(N2CCN(C(=O)Cn3cc(CCO)nn3)CC2)nc(N2CCN(C(=O)[C@H]([C@@H](C)O)n3cc(CCCCN)nn3)CC2)n1,0.1,38*,31%,2,1.4,·,-11
Cc1ccc(/C(O)=C2/C(=O)C(=O)N(c3ccccn3)C2c2ccc(F)cc2)cc1 (stereo not drawn),-2.2,9.3,·,0,2.8,0.71,2.3
Cc1cc(C)c(C)c(S(=O)(=O)N2CCC(C(=O)NCCCN3CCCC3=O)CC2)c1C,1.6,2.0,-3%,10,-0.1,0.66,-0.7
Cc1nc2ccc(NC(=O)c3ccccc3)cc2s1,-3.0,0.2,-4%,-4,-2.0,0.7,-1.7
Cc1ccc(/C=N/Nc2nc(N3CCCCC3)nc(N3CCCCC3)n2)o1,0.6,·,16%,8,-0.8,·,-3.5
COc1ccc(-c2nc(CN3CCC(C(=O)NC4CCN(Cc5ccccc5)CC4)CC3)c(C)o2)cc1OC,1.0,-1.8,12%,14,2.9,0.69,0.7
CCCC(C)NC(=O)Cc1ccccc1 (stereo not drawn),0.2,0.8,·,-5,-2.8,0.65,0.8
CCC(C)(C(=O)NC1CCCC1)N(Cc1ccco1)C(=O)c1ccccn1 (stereo not drawn),-0.3,3.2,1%,7,-1.2,0.72,-2.8
COc1ccccc1N1CCN(C(=O)c2cc3c(s2)CCCCC3)CC1,0.5,-1.4,·,3,1.1,0.71,-2.7
COCCn1nnnc1C(c1ccccc1Cl)N1CCN(c2ccccc2OC)CC1 (stereo not drawn),·,·,21%,-7,-4.3,0.73,·

Further records:
structure,Bfl-1 A1 inh,UCH37 inh,Vif TR-FRET,Beta2AR agonist,HNF4A DNA FP,Ecoli growth,LANA-H2B inh
CC(C)(C)OC(=O)C[C@@H]1C/C=C\C[C@H](CC(=O)N(CCO)Cc2ccccc2)C(=O)NCCOC1=O,·,0.1,-5%,-7,-1.3,0.73,·
Cc1noc(C)c1COc1ccccc1C(=O)NCCc1ccc(Cl)cc1,0.1,3.7,4%,0,1.9,0.68,-8.9
CC1=NN(c2ccc(C)cc2C)C(=O)C1C(c1cccc(O)c1)C1C(=O)N(c2ccc(C)cc2C)N=C1C (stereo not drawn),-1.7,-1.1,·,-4,-1.4,·,3.2
COc1cc(/C=C2/SC(=S)N(Cc3ccccc3)C2=O)ccc1OS(C)(=O)=O,0.1,5.3,1%,14,0.8,0.71,0.1
COc1ccccc1/C=C1\N=C(C(C)(C)C)OC1=O,0.8,5.0,5%,8,5.6,0.69,7.6
Nc1cccc(C(=O)N/N=C/c2ccsc2)c1,-1.4,·,-15%,-4,-4.0,·,1.9
CCCCn1c(N)c(N(CC)C(=O)CSCc2c(C)noc2C)c(=O)[nH]c1=O,-0.7,0.7,17%,-3,4.4,0.71,-3.1
Cc1nn(-c2ccc(N3CCOCC3)nn2)c(C)c1CCC(=O)NCc1ccccc1,-1.1,1.6,-1%,-6,0.0,0.73,3.7
O=C(NCCCN1CCCC1=O)Nc1ccc(F)c(Cl)c1,-0.2,3.6,3%,2,0.3,0.66,11
CCOc1ccc(N2CC(C(=O)Nc3cc(C)on3)CC2=O)cc1 (stereo not drawn),-0.5,2.6,11%,-2,2.1,0.68,-2.3
C[N+](C)(C)CCNC(=O)c1c(O)c2c([nH]c1=O)CCCC2,0.0,0.4,-3%,-17,-8.6,0.72,-1.3
COC(=O)C(C)N1C(=O)S/C(=C\c2cc(C)n(-c3ccccn3)c2C)C1=O (stereo not drawn),-0.1,1.8,29%,7,15,0.67,7.5
COc1ccc(CN(C(=O)c2ccco2)c2ccc(C)c(C)c2)cc1,-1.2,3.0,·,-3,-3.3,0.7,-5.3
Cc1c(C(=O)N2CCCCCC2)nnn1-c1nonc1N,0.5,1.6,-1%,-4,0.4,0.75,0.0
O=C(Nc1ccccc1C(=O)NCCCN1CCOCC1)c1ccc(F)cc1,0.7,1.1,·,1,2.5,0.67,-1.4

Grouped by structure: those above containing a tert-butyl group.
structure,Bfl-1 A1 inh,UCH37 inh,Vif TR-FRET,Beta2AR agonist,HNF4A DNA FP,Ecoli growth,LANA-H2B inh
CC(C)(C)OC(=O)C[C@@H]1C/C=C\C[C@H](CC(=O)N(CCO)Cc2ccccc2)C(=O)NCCOC1=O,·,0.1,-5%,-7,-1.3,0.73,·
COc1ccccc1/C=C1\N=C(C(C)(C)C)OC1=O,0.8,5.0,5%,8,5.6,0.69,7.6

Hits appear at their usual frequency; any-hit rate near 2.1%.
